# KCNQ2 enhance – potentiators of rat KCNQ2 potassium channel | O88943 | CHO-K1 KCNQ2, FluxOR thallium flux fluorescence; active compounds read high | B-score at 10 µM | hit rate 0.54% among 310,000;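 active = fluorescence ratio B-score at least 3 SD of library B-scores, with initial fluorescence B-score within 3 SD, cut at about 5.3 in these data; same plate scores as AID 2156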;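 note: B-score of peak minus minimum over baseline fluorescence ratio after K+ and Tl+ stimulus; positive B-score means potentiation of KCNQ2 with more thallium influx and brighter signal; only the inactives scoring about 0 or higher are listed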
# Target sequence (O88943 whole entry, looked up): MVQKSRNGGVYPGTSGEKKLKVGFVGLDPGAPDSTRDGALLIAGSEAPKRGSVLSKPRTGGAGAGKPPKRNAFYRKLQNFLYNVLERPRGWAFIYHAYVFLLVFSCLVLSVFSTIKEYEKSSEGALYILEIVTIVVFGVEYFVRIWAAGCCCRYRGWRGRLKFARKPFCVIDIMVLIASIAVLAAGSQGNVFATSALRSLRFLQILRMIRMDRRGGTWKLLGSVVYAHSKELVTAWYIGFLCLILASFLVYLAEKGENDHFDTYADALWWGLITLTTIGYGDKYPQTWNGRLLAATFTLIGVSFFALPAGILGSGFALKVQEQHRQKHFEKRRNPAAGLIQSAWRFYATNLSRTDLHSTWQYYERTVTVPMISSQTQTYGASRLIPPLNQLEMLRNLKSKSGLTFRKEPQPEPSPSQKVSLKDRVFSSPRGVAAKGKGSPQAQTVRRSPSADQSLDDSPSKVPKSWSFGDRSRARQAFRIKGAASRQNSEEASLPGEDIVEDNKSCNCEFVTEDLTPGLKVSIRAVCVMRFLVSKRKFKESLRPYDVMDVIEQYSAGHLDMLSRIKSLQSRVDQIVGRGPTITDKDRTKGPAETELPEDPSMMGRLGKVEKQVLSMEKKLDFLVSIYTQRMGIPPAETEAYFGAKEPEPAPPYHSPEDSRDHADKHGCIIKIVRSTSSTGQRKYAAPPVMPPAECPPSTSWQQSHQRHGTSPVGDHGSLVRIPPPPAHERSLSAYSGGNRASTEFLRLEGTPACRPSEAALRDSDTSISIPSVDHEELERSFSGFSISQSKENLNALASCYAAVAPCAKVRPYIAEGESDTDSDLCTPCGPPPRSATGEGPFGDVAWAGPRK
# KCNQ2 enhance baseline – recorded beside KCNQ2 enhance, whose call it bears; B-score; compound at 10 µM; measured here: initial fluorescence intensity artifact check;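 brightness before thallium and not channel activity; 0 = typical well and far values either way flag optical interference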
# * hit, by the source's call.
SMILES	KCNQ2 enhance	KCNQ2 enhance baseline
O=C1CCN(c2ncccc2[N+](=O)[O-])CC1	0.94	1.15
Cc1cccc(NC(=O)CCS(=O)(=O)c2ccccc2)c1	2.52	-0.96
O=C(NCCc1ccc(C(F)(F)F)cc1)C1CCC(=O)N(CCCc2ccccc2)C1 (stereo not given)	0.06	1.71
CCc1nnc(NC(=O)C(C)N2C(=O)C3C4C=CC(C4)C3C2=O)s1 (stereo not given)	0.92	0.73
O=C(NCCCO)/C(=C\C=C\c1ccccc1)NC(=O)c1ccccc1Cl	0.06	0.07
Cc1onc(-c2ccccc2)c1C(=O)Nc1sc2c(c1C(N)=O)CCC2	0.41	-1.25
O=C(NC1CC(=O)N(c2ccc3c(c2)OCCO3)C1)N1CCC(O)CC1 (stereo not given)	0.14	-0.05
CCCCCn1c(CN2CCN(CCO)CC2)nc2c1c(=O)n(C)c(=O)n2C	1.89	-0.06
CCOC(=O)CSc1n[nH]c(NC(=O)CC)n1	0.75	-2.03
COC(C[C@H](O)CC(=O)[C@@H](C)OCc1ccccc1)OC	0.69	1.57
CC(=O)NCC(=O)N(C)C(C(=O)Nc1ccc(C(C)C)cc1)c1ccccc1 (stereo not given)	1.27	0.15
CCn1c(-c2nn(-c3ccccc3)ccc2=O)n[nH]c1=S	0.43	-0.01
C=CCNC(=O)C(C)N1C(=O)c2ccccc2C1=O (stereo not given)	0.01	-0.23
N#C/C(=C\c1ccc[nH]1)C(=O)NC1CC1	1.82	0.14
O=[N+]([O-])c1cccc(N(CC(O)CN2CCCC2)S(=O)(=O)c2ccccc2)c1 (stereo not given)	0.05	1.14
O=C(NCc1ccc(F)cc1)c1cnc2n(c1=O)CCS2	0.15	2.59
Cc1cc(N2CCCC(C(=O)Nc3cccc(Cl)c3)C2)n2ncnc2n1 (stereo not given)	1.11	0.75
Cc1ccc(OCC(=O)NNC(=O)CCC(=O)Nc2ccc(C)cc2C)cc1	0.43	0.8
CCCc1nnc(SCC(=O)Nc2nnc(CC)s2)n1CC1CCCO1 (stereo not given)	0.02	-0.09
O=C(CCCc1ccccc1)NCCS(=O)(=O)N1CCN(c2ccccc2F)CC1	1.44	-0.53
Cc1cc(OCC(O)CN2CCCC2)cc(C)c1Cl (stereo not given)	0.13	-0.34
CC(C)[C@H](NC(=O)NCCC1=CCCCC1)C(=O)O	0.99	1.04
O=C(COC(=O)C1CC(=O)N(C2CCCCC2)C1)c1ccc(F)cc1 (stereo not given)	0.05	0.38
CCNc1nc(NC(C)C)nc(NS(=O)(=O)c2ccc(N)cc2)n1	0.04	-1.77
O=C(c1coc2ccc(O)c(CN3CCOCC3)c12)C1CC1	1.53	0
CCSc1nnc(NC(=O)c2cccs2)s1	0.45	-0.07
Cc1ccc2nc(SC(C)C(=O)N3CCOCC3)[nH]c2c1 (stereo not given)	1.19	0.47
Cc1ccc(S(=O)(=O)NNC2=NS(=O)(=O)c3ccccc32)c(C)c1	2	2.2
Cc1csc(Sc2nc3c(c(=O)[nH]c(=O)n3C)n2CCCc2ccccc2)n1	0.49	0.63
Cc1noc(C)c1CSc1nc2sc3c(c2c(=O)n1C)CCCC3	2.05	-0.75

# 4 structures from above, arranged by heavy-atom count, high to low:
SMILES	KCNQ2 enhance	KCNQ2 enhance baseline
Cc1csc(Sc2nc3c(c(=O)[nH]c(=O)n3C)n2CCCc2ccccc2)n1	0.49	0.63
CCc1nnc(NC(=O)C(C)N2C(=O)C3C4C=CC(C4)C3C2=O)s1 (stereo not given)	0.92	0.73
C=CCNC(=O)C(C)N1C(=O)c2ccccc2C1=O (stereo not given)	0.01	-0.23
O=C1CCN(c2ncccc2[N+](=O)[O-])CC1	0.94	1.15

# Seven of the entries above in order of the KCNQ2 enhance baseline value, lowest first.
Compound | KCNQ2 enhance baseline
O=C(CCCc1ccccc1)NCCS(=O)(=O)N1CCN(c2ccccc2F)CC1 | -0.53
C=CCNC(=O)C(C)N1C(=O)c2ccccc2C1=O (stereo not given) | -0.23
CCSc1nnc(NC(=O)c2cccs2)s1 | -0.07
O=C(NCCCO)/C(=C\C=C\c1ccccc1)NC(=O)c1ccccc1Cl | 0.07
CC(=O)NCC(=O)N(C)C(C(=O)Nc1ccc(C(C)C)cc1)c1ccccc1 (stereo not given) | 0.15
Cc1csc(Sc2nc3c(c(=O)[nH]c(=O)n3C)n2CCCc2ccccc2)n1 | 0.63
CCc1nnc(NC(=O)C(C)N2C(=O)C3C4C=CC(C4)C3C2=O)s1 (stereo not given) | 0.73

# The list continues:
SMILES	KCNQ2 enhance	KCNQ2 enhance baseline
COc1ccc(N2CCN(C(=O)C(=O)c3cn(CC(=O)N4CCOCC4)c4ccccc34)CC2)cc1	0.47	-1.07
CC(=O)N1c2ccc(S(=O)(=O)N(C)C3CCCCC3)cc2CC1C (stereo not given)	0.54	-1.23
COCCCNc1ncnc2c1cnn2-c1ccc(C)cc1C	2.28	0.44
CCc1ccc(C2=NN(CCC(=O)NC(C)CCc3ccccc3)C(=O)CC2)cc1 (stereo not given)	0.24	-0.25
COc1cc(C)ccc1OCCOc1ccccc1Cl	0.2	-1.46
COc1ccccc1N1CCN(Cc2ccc(O)c3ncccc23)CC1	6.48*	-1.95*
Cc1ccc(C2c3c(oc4ccccc4c3=O)C(=O)N2c2nncs2)cc1 (stereo not given)	0.75	-3.1
Cc1nn(-c2ccccc2)c(C)c1Cc1ccc(O)cc1	0.05	2.14
Nc1c(S(=O)(=O)c2cccs2)c2nc3ccccc3nc2n1Cc1cccs1	0.18	-1.56
FC(F)(F)c1cccc(NC(=S)NCCc2ccccn2)c1	1.7	-0.67
C=CCc1cccc2cc(C(=O)NNC(=O)CC#N)c(=O)oc12	0.54	-0.04
COc1cc2c(=O)n(Cc3ccccc3)c(=O)n(CC(=O)C(C)(C)C)c2cc1OC	0.19	1.49
COc1ccc(/C=C/C(=O)OCCCN(C)C)cc1	0.3	-0.03
O=C(Oc1cccc2c(OC(=O)N3CCOCC3)cccc12)N1CCOCC1	0.28	0.12
O=C(Nc1nccs1)c1cccc(NC(=O)C(F)(F)F)c1	1.33	1.25
Cc1cccc(NC(=O)CN2CCN(CC(=O)Nc3ccc(-c4ccccc4)cc3)CC2)c1C	0.02	2.03
CC(SC1=NCCN1S(C)(=O)=O)c1ccccc1 (stereo not given)	0.95	-0.78
O=C(NC1CCS(=O)(=O)C1)c1cc(-c2ccccc2)nc2ccccc12 (stereo not given)	0.19	-0.02
CCCn1c(=N)c(C#N)cc2c(=O)n3ccccc3nc21	0.1	-1.54
O=C(COC(=O)C1=COCCO1)Nc1c(F)cccc1F	0.81	-0.28
Cc1cccc(NC(=O)c2cc(NC(=O)CCCC(=O)O)ccc2Cl)n1	1.28	0.75
CCOC(=O)c1ccc(NC(=O)c2c(N)n(Cc3ccccc3)c(=O)[nH]c2=O)cc1	1.59	-2.96
Cc1c(S(=O)(=O)N2CCN(C(=O)c3ccco3)CC2)c(=O)n(C)c(=O)n1C	0.11	0.68
O=C(Nc1ccccc1Cl)c1csc(-c2cccnc2)n1	1.37	0.56
CC1CCCN(C(=O)C2CCN(S(=O)(=O)c3cccc4nsnc34)CC2)C1 (stereo not given)	1.44	0.2
Cc1ccccc1NC(=O)N1CCNC(=O)C1CC(=O)Nc1cc(Cl)ccc1Cl (stereo not given)	0.47	2.01
O=C(O)c1ccc(NS(=O)(=O)c2cccc3cccnc23)cc1	1.07	-0.66
COc1ccccc1NS(=O)(=O)c1ccc2nc(CCl)[nH]c2c1	0.29	-0.84
COc1ccccc1N1CCN(C(=O)CN2C(=O)c3cccc4cccc(c34)C2=O)CC1	1.27	-0.19
Cc1ccc2[nH]cc(CCNC(=O)c3cccs3)c2c1	0.17	0
CCOc1ccc(/C=C/C(=O)CCC(=O)O)cc1	0.07	0.05
CCOCCn1c(SCc2ccccc2)nc2c1c(=O)[nH]c(=O)n2C	0.03	-0.2
CCCn1nc(Oc2nc(SC)nc(N(C)C)n2)ccc1=O	0.02	2.28
Brc1ccc(-c2ncc(-c3ccccc3)cn2)cc1	1.38	1.86
CC1(C(=O)Nc2ccc3c(c2)OCCO3)CC1(Cl)Cl (stereo not given)	1.22	1.22
CC(C)CCn1cnc2c(c1=O)c1nc3ccccc3nc1n2Cc1ccc2c(c1)OCO2	0.55	0.89
Cc1ccc(NNc2c(C)nc3ccccc3nc2=O)cc1	3.82	-0.22
Cc1ccc(/C=N/NC(=O)C2(C)CC2(Br)Br)cc1 (stereo not given)	0.64	1.17
CCN(CC)Cc1cc(C(C)=O)ccc1OCC(C)C	0.02	-0.63
COc1cc(/C=C2/C(=O)NN(c3cccc(C)c3)C2=O)cc([N+](=O)[O-])c1O	0.54	-2.14
CC(C)c1ccc(-c2noc(C3CCCN(S(C)(=O)=O)C3)n2)cc1 (stereo not given)	0.43	-1.45
COc1ccc(N2CCN(S(=O)(=O)c3ccc(Cl)c(C(F)(F)F)c3)CC2)cc1	0.5	0.82
CC(C)C(C(=O)Nc1ccncc1)c1ccc(Cl)cc1 (stereo not given)	3.34	-0.49
CCn1nnc(NC(=O)C(C)Oc2ccc(Cl)cc2Cl)n1 (stereo not given)	2.55	0.68
Cc1cccc(Nc2nc(N)nc(CC(=O)CSc3ccc(Cl)cc3)n2)c1	0.84	1.33
CSc1nc(SC(C)C(=O)O)c2c3c(sc2n1)COC(C)(C)C3 (stereo not given)	0.21	-1.6
Cc1cnc(NC(=O)CSc2ncc(-c3ccccc3)n2Cc2ccco2)s1	0.15	-0.03
CCOC(=O)C1CN(c2cc3c(cc2F)c(=O)c(C(=O)O)cn3CC)OC1C(=O)OCC (stereo not given)	0.88	0.03
COc1ccc(NS(=O)(=O)c2ccc(NC(=S)NC(=O)c3ccc(Br)cc3)cc2)nn1	1.74	0.07
CCCn1nc(NC(=O)c2ccncc2)c2cc3ccccc3nc21	1.25	-1.28
CCNC(=O)COC(=O)CCNC(=O)c1ccc(Cl)cc1	0.56	0.79
O=S(=O)(NCCSCc1ccc(Cl)c(Cl)c1)c1ccc2c(c1)OCCO2	0.54	-0.98
Cc1[nH]n(C(C)(C)C)c(=O)c1Sc1ccc(Cl)cc1	1.03	-0.41
COCCN(C(=O)COC(=O)/C=C/c1ccc2c(c1)OCO2)c1c(N)n(Cc2ccccc2)c(=O)[nH]c1=O	0.07	-0.21
COc1ccc(C)cc1NS(=O)(=O)c1ccc(NC(=O)CN(c2cc([N+](=O)[O-])ccc2C)S(C)(=O)=O)cc1	0.08	-0.05
Cc1cc2cc3c(cc2nc1SCC(=O)O)OCCO3	1.48	0.72
CCOc1ccc(OCC)c(NC(=O)C2CCN(S(=O)(=O)c3c(C)noc3C)CC2)c1	0.91	0.1
CC(=O)Nc1c(C)ccc(CNC(=O)COc2cc(C)ccc2C)c1C	1.75	1.84
Cc1cc(C(=O)Nc2ccc(OCc3ccccc3)cc2)c(C)o1	1.95	1.04
C=C(C)c1ccccc1NC(=O)CCN1C(=O)c2ccccc2S1(=O)=O	2.4	-1.31

# One compound at a time, as listed above:
# Record of CCNC(=O)COC(=O)CCNC(=O)c1ccc(Cl)cc1 = KCNQ2 enhance: 0.56; KCNQ2 enhance baseline: 0.79
# Record of COc1ccc(N2CCN(S(=O)(=O)c3ccc(Cl)c(C(F)(F)F)c3)CC2)cc1 = KCNQ2 enhance: 0.5; KCNQ2 enhance baseline: 0.82

# Carrying on.
SMILES	KCNQ2 enhance	KCNQ2 enhance baseline
COc1ccc(NC(=S)NCCCN2CCCC2)cc1	0.04	0.17
O=C(COC(=O)CCC(=O)c1ccccc1)NNC(=O)c1ccc(Cl)cc1	1.86	-0.66
NC(=O)c1nc(-c2cccs2)nc2c1[nH]c(=O)n2-c1ccc(F)cc1	1.05	0.2
Cc1sc2ncnc(OCC(=O)Nc3ccc4c(c3)OCCO4)c2c1C	1.72	-0.33
Cc1cccc([C@@H]2[C@@H]3C(=O)N(Cc4ccccc4)C(=O)[C@@H]3[C@]3(CC(C)C)C(=O)N(c4cccc(Br)c4)C(=O)N23)c1	0.16	0.96
COc1ccc(-c2cc(C(F)F)n3ncc(C(=O)N4CCN5CCCC5C4)c3n2)cc1 (stereo not given)	1.14	-0.02
Cc1ncc([N+](=O)[O-])n1CC(=O)N/N=C/c1ccc(F)cc1	0.08	2.34
c1ccc(Nc2nnc(SCc3cccc4ccccc34)s2)cc1	0.92	-0.29
Clc1ccc(-c2nc(-c3cnccn3)no2)cc1	0.43	-1.16
CC1CCCN(C(=O)CCc2ccccc2)C1 (stereo not given)	0.67	-0.6
Cc1c(C)c2ccc(OCC(=O)NC3CCN(Cc4ccccc4)CC3)c(C)c2oc1=O	1.55	-2.22
Cc1cccc(-n2c(C)cc(/C=N\NC(=O)c3cccs3)c2C)c1	0.51	-4.2
Brc1ccc2oc(-c3ccn[nH]3)cc2c1	1.38	-1.01
CCCCc1cc(=O)oc2cc(OCC(=O)N3CCC(C(N)=O)CC3)ccc12	2.29	-0.09
Cc1ccc(S(=O)(=O)N2Cc3ccccc3CC2C(=O)Nc2cc(C)on2)cc1 (stereo not given)	0.98	-0.78
COCCNC(=S)N/N=C(\C)c1cccc(C(F)(F)F)c1	0.29	-0.1
Cc1cccc(NC(=S)N(CCc2ccncc2)C(C)C)c1C	1.69	-1.97
COc1cc(C2CC(=O)c3cnc(N)nc3C2)cc(OC)c1OC (stereo not given)	0.2	-1.57
CCC(C)C1Nc2ccc(C(=O)NCCc3ccc(OC)c(OC)c3)cc2NC1=O (stereo not given)	0.28	0.21
CCO[C@H]1OC(C(=O)NCc2nc3ccccc3[nH]2)=C[C@@H](c2ccc3c(c2)OCO3)[C@@H]1CCCO	0.05	0.18
COc1ccccc1-c1nnc(-c2ccc(F)cc2)o1	0.2	-1.43
CCC(C)N1CC(C(=O)NC2CCCCC2)CC1=O (stereo not given)	0.42	0.13
O=C(CSc1cc(Cl)ccc1Cl)NCCCn1ccnc1	0.86	0.64
CCCCNC(=S)NNC(=O)c1csc(C)c1C	0.17	-0.72

# Only part of the results is shown; rates above refer to the full screens.
